gsp agonist = agonists of gsp mutant (McCune-Albright syndrome); gsp mutant cells, cAMP HTRF, 30 min; control for the full effect not named in the record; Potency, µM (titrated, usually from 76.9 µM), for the others: at the highest dose activation (cAMP increase), usual class: activators; 340,000 compounds, 0.13% hits; AID 624287; active = well fitted activation curve with a large enough effect; inconclusive = small, poorly fitted or top-dose-only effect, or another doubt; inactive = no such curve, though single readings can be large or run the other way; cell line not stated here;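 also: phosphodiesterase inhibitor Ro 20-1724 added with compounds to block cAMP breakdown; potency is read from the fitted curve at half-maximal effect; nearly all actives have a fitted effect of over 60% in size; about a fifth of the inactives were tested at one dose only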
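Cells stably selected in G418 were plated at 2000/well, grown 16-24 hr, then given compounds in DMSO with the PDE inhibitor […] (300 uM solution added) for 30 min at 37C; cAMP was read by HTRF.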
TRPML1 ag = human mucolipin-1 channel agonism; AID 624414; 410,000 compounds, 0.12% hits; TRPML1-expressing cells, Ca2+ dye fluorescence, FDSS; host cell line not named in the record; reference of the full effect not given here; activation, % (concentration not given with the values); in the data active = activation above about 50%; inconclusive = about 30% to 50%; inactive = below about 30%; also: 0% is about no effect; the text of the record puts the active cut at 80%
Target sequence (Q9GZU1 whole entry, looked up): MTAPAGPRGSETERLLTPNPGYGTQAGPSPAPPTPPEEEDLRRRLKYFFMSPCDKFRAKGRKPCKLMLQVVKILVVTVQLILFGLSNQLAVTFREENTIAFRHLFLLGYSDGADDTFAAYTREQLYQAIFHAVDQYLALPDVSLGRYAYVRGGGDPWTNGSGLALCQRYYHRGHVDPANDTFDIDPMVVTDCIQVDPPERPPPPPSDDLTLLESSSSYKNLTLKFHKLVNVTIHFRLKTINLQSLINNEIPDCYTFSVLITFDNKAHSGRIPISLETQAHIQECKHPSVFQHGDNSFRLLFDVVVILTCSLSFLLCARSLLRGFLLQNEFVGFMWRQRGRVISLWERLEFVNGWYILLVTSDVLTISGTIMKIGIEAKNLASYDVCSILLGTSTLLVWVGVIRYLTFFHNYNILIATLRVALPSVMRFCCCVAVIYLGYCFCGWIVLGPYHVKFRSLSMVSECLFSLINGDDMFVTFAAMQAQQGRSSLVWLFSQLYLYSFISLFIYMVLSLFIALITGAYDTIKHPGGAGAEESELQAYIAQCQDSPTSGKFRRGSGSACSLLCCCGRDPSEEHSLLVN
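Tetracycline-induced TRPML1-DL cells are seeded and incubated overnight before loading with a no-wash Ca2+ dye and quencher. Agonist activity is taken from the 110 s fluorescence read following compound pin-transfer on an FDSS, before EC80 54-4 challenge.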
ClpP mod = qHTS Assay for Activators of ClpP; purified B. subtilis ClpP, FRET peptide cleavage, 20 min; ATP-dependent Clp protease proteolytic subunit (Bacillus subtilis (strain 168)), P80244; 340,000 compounds, 1.9% hits; Potency, µM (titrated, usually from 57.5 µM), for inactives: at the highest dose activity change, negative = active; active = well fitted falling curve with a large enough effect; inconclusive = small, poorly fitted or top-dose-only effect; inactive = no such curve, though single readings can be large or run the other way; also: potency is read from the fitted curve at half-maximal effect; the source files actives as falling curves though it sought activators and does not explain the sign; nearly all actives have a fitted effect of over 65% in size; many hits overshoot -100%
Target sequence (P80244 whole entry, looked up): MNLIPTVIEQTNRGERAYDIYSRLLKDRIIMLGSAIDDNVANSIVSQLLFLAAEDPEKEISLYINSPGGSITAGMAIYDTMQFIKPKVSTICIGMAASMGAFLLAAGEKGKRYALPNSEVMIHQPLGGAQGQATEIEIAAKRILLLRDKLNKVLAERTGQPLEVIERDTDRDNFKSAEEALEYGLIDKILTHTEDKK
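Buffer: 100 mM Tris/HCl pH8, 100 mM KCl, 0.05% low protease BSA, 2.5% glycerol, 0.01% Tween-20. ClpP 10 microg/mL final; 20 min RT; delta FRET normalized to ADEP and DMSO controls.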
gsp antagonist = gsp mutant antagonism. AID 624288. Potency, µM (doses to about 76.9 µM), without a hit: at the top dose activity change, negative = inhibition, most hits filed as inhibitors. 340,000 compounds, 0.4% hits. gsp-mutant cells, cAMP HTRF, 30 min; control for the full effect not named in the record; active = falling curve of any shape with a large fitted effect; inconclusive = falling curve, mostly with a smaller effect; inactive = flat or rising curve; cell line not stated here;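 also: intracellular cAMP measured with PDE inhibitor Ro 20-1724 present during compound exposure; potency is read from the fitted curve at half-maximal effect; % is scaled to controls: 0 for no effect and ±100 for the full control effect; nearly all actives have a fitted effect of over 65% in size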
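Cells, 2000/well, grown 16–24 h in DMEM 10% FBS with 0.5 mg/ml G418, then compounds plus […] (300 uM addition stock), 30 min at 37C. cAMP read by HTRF (cAMP-d2 and anti-cAMP antibody-K in lysis buffer) after 30 min RT.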
Menin MLL FP FL = displaces fluorescein MLL peptide from human menin. Fluorescence polarization, fluorescein-MLL peptide displacement from menin. FP activity change, % at 61.4 µM. 290,000 tested, under 10 active; inconclusive = falling polarisation curve, or a change in total fluorescence; inactive = total fluorescence flat and polarisation flat or rising; no compound was filed as active; the % refers to the polarisation; negative = inhibition;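 also: % of control where 0% means no effect; inhibitors lower the polarisation; unlabelled MLL peptide was the positive control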
TRPML1 inh = blocks the human TRPML1 channel | Q9GZU1 | TRPML1-inducible cells, Ca2+ dye fluorescence, FDSS; hits give low values; inhibition of EC80 agonist-evoked calcium signal | activity change, negative = inhibition, % (concentration not given with the values) | 390,000 compounds, 0.02% hits; in the data active means activity change below about -50%; inconclusive means about -30% to -50%; inactive means above about -30%;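 also: stimulus is agonist 54-4 at its EC80 concentration; % is scaled to controls: 0 for no effect and ±100 for the full control effect; the text of the record puts the active cut at -80%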
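TRPML1-DL cells, Tet-induced overnight (~16 h, 37 °C) at 1,500 cells/well, were loaded with Ca8 no-wash dye plus quencher for 45-90 min at room temperature. Compounds were pinned during FDSS kinetic reading; agonist 54-4 at EC80 (4 uM final) then added.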
* marks the source's active call; other numbers are inactive results; ? = inconclusive; . = not tested or not shown; [ ] = dose if it differs, or a comment.

Below each compound – gsp antagonist	Menin MLL FP FL	gsp agonist	ClpP mod	TRPML1 inh	TRPML1 ag
CCC(=O)N1CCN(c2ccc(NC(=O)c3ccc(N4CCOCC4)c([N+](=O)[O-])c3)cc2)CC1
 : -9%	.	2%[15.4 µM]	1.7%	2	0.4
O=C(NNc1nc2c(F)cccc2s1)c1ccc(F)cc1
 : 9%	?	6%	2.8%	4	0.4
CCOC(=O)c1ccc(NC(=O)c2c(NCc3cc(OC)ccc3OC)sc3c2CCC3)cc1
 : .	.	.	-4.9%	-4	-0.4
CCN1C(C(=O)c2ccccc2)=C(OC(=O)C(C)C)c2ccccc2S1(=O)=O
 : .	.	.	1.1%	5	2.9
Oc1ccccc1C=NC1CCCCC1N=Cc1ccccc1O (stereo unspecified)
 : -13%	-2.8	3%	.	57	-0.3
CC(C)(CNC(=O)c1cccc(S(=O)(=O)N2CCCCC2)c1)N1CCOCC1
 : .	.	?	-2.9%	-1	-0.2
O=C(COc1ccc(-n2ccnc2)cc1)Nc1cccc(Cl)c1
 : -10%	-1.1	5%[15.4 µM]	-0.2%	-2	0.5
COc1cccc(C(=O)Nc2ccccc2C(=O)NC2CC2)c1
 : -14%	.	?	1.9%	-9	0.2
CC(=O)N1c2ccc(S(=O)(=O)NCC3CCC(C(=O)Nc4ccc(C)c(C)c4)CC3)cc2CC1C (stereo unspecified)
 : .	.	.	3.1%	-5	-0.4
COc1ccc(/C=N/OCC(=O)NC(c2ccccc2)c2ccccc2)c(OC)c1
 : -22%	-1.2	14%	1.9%	52	1.5
O=C(CCCn1c(=O)[nH]c2cc(Cl)ccc2c1=O)N1CCN(c2ccc([N+](=O)[O-])cc2)CC1
 : -10%	2.0	-14%	0.5%	1	0.0
O=C(NCc1ccccn1)C1(C(F)(F)F)C/C(=C\Cc2ccccc2)CCCO1 (stereo unspecified)
 : .	-5.7	.	.	-6	1.0
CN(C(=O)COC(=O)CNC(=O)C1CCCCC1)c1ccccc1
 : 3%	.	-30%[inhibitor]	-0.4%	-11	0.0
CC(=O)c1ccc(Nc2ccc(-c3ccccc3C)nn2)cc1
 : -8%	6.3	57%	-4.3%	13	5.6
Cc1cccc(C)c1NC(=O)CNC(=O)CCC(=O)N1CCOCC1
 : 15%	.	-43%	-0.7%	13	0.4
Cc1cc(C)n(Cc2ccccc2)c(=O)c1S(=O)(=O)c1ccccc1
 : 7%[15.4 µM]	0.7	13%	-8.1%	17	1.6
Clc1ccc(-c2nnc(N3CCOCC3)o2)cc1
 : 1%	-1.2	15%	.	5	1.3
CC(=O)Nc1nc2c(ccc3ccccc32)s1
 : 6%	-2.4	-6%	-17%	2	0.0
Cc1ccc(C2=NOC(C)(c3nnc(-c4ccncc4)o3)C2)cc1 (stereo unspecified)
 : 8%	.	.	-3.1%	9	0.0
CC(=O)N1c2ccc(S(=O)(=O)N3CCCCC3)cc2CC1C(=O)NCc1ccccc1C (stereo unspecified)
 : -29%	.	-18%	0.9%	2	0.0
Cc1ccccc1C(=O)NNC(=O)C1CC(=O)N(c2ccc3c(c2)OCCO3)C1 (stereo unspecified)
 : 7%	.	11%	1.5%	-9	-0.5
O=C(C[n+]1cc(Br)cc2ccccc21)c1ccccc1
 : -9%	9.7	-32%[inhibitor]	-12%	-10	0.8
N/C(Cc1cccs1)=N\OC(=O)COc1ccc(Br)cc1
 : 5%	0.0	-25%	-0.1%	18	1.5
CN(C)c1cccc(C(=O)OCC(=O)NC(=O)NCc2ccccc2)c1
 : 4%	.	18%	.	7	1.2
O=C(COC(=O)/C=C/c1ccco1)NCCN1C(=O)CSC1=O
 : 17%	.	-10%	0.1%	.	.
Cc1ccccc1CSCC(=O)NNC(=S)NCC1CCCO1 (stereo unspecified)
 : 4%	.	-16%	0.8%	0	0.2
COc1ccc(NC(=O)CS(=O)CC(=O)Nc2ccc(NC(C)=O)cc2)cc1 (stereo unspecified)
 : 4%	3.4	-7%[15.4 µM]	.	2	0.9
CCOC(=O)C1=C(C)NC(C)=C(C(=O)OCC)C1c1ccc(Br)o1
 : -6%	2.2	-4%[15.4 µM]	3.5µM*	39	1.8
COc1cccc(NC(=O)C(=O)c2cn(CC(=O)N3CCCC3)c3ccccc23)c1
 : ?	.	-1%	0.1%	18	-0.1
CC1Cc2nc(SCC(=O)NCC3CCCO3)n(-c3ccc(F)cc3)c(=O)c2S1 (stereo unspecified)
 : -3%	-6.4	-45%	-1.8%	6	-0.4
CCn1c2ccccc2c2cc(NC(=O)c3cc(OC)c(OC)c(OC)c3)ccc21
 : 31%[activator]	2.7	-112%[inhibitor]	-29%	2	-0.4
COc1ccc2sc(N(CCCN(C)C)C(=O)c3ccc(C(=O)c4ccccc4)cc3)nc2c1
 : -2%	.	-3%[15.4 µM]	0.7%	4	0.3
FC(F)(F)c1ccc(-c2csc(-c3ccno3)n2)cc1
 : -9%	?	6%	-3.9%	-4	-1.3
COc1ccccc1CNC(=O)Cn1nc(C)n2cccc2c1=O
 : .	.	.	-2.2%	-11	-0.4
CCOC(=O)N1CCC(NC(=O)CCC(=O)N2CCOc3ccccc32)CC1
 : -6%	7.1	-5%	-0.1%	2	2.1
Cc1nc(Nc2ccc(C(=O)O)cc2)nc(Nc2ccc(C(=O)O)cc2)c1[N+](=O)[O-]
 : 7%	-1.5	?	-0.1%	18	0.1
CCOC(=O)C1CCN(CC(O)COCc2ccc3c(c2)OCO3)CC1 (stereo unspecified)
 : 7%	0.5	?	0.9%	-4	-0.4
O=C(NC(Nc1ccccn1)C(Cl)(Cl)Cl)c1ccccc1 (stereo unspecified)
 : -2%	-0.9	-2%[15.4 µM]	.	-6	-0.3
Oc1c(N=NC(=S)Nc2ccccc2F)c2ccccc2n1Cc1ccccc1F
 : -6%	-1.1	-4%	2.6%	51	1.8
CCOC(=O)c1ccc(NC(=O)CSc2nc(-c3ccc(OC)cc3)cc(C(F)(F)F)c2C#N)cc1
 : .	.	.	4.0%	-12	2.8
O=c1[nH]nc(SCc2cc(Cl)ccc2Cl)c(=O)[nH]1
 : -11%	2.0	10%[15.4 µM]	.	10	-0.3
CCN(CC)C(=O)CSc1nc2ccsc2c(=O)n1Cc1ccccc1Cl
 : .	.	.	0.6%	24	1.9
CCS(=O)(=O)N1CCCC(C(=O)N2CCc3ccccc3C2)C1 (stereo unspecified)
 : 0%	2.4	27%	-5.7%	1	-1.1
CCn1cc(S(=O)(=O)CC(=O)Nc2cc(C)on2)c2ccccc21
 : -7%	-6.9	12%	0.2%	-10	-0.9
O=C(CCCC(=O)OCC(=O)c1ccc(Cl)cc1)NC1CCCCC1
 : -5%	-1.9	-37%[inhibitor]	0.2%	-14	0.1
CCN(CC(=O)Nc1c(Cl)cccc1Cl)C(=O)C1CCN(c2ncnc3sc(C)c(C)c23)CC1
 : -21%	.	1%	0.8%	22	2.7
COc1ccc(Cl)cc1C(=O)NC1=NCCS1
 : -2%	-2.5	-5%[15.4 µM]	-0.2%	4	0.0
COc1ccc(CC(=O)OCC(=O)Nc2ccc(Cl)cc2C)cc1
 : 5%	.	16%[15.4 µM]	-1.7%	21	1.7
CCC(=O)NC(=S)Nc1cccc(NC(=O)c2ccccc2Cl)c1
 : -14%	2.5	3%	1.2%	9	-0.2
CC(=O)Nc1ccc(C(=S)NCc2ccco2)cc1
 : 1%	5.5	?	2.6%	-5	-0.7
O=C(OCC(=O)N1c2ccccc2Sc2ccccc21)c1ccc[n+]([O-])c1
 : -6%	-3.5	7%	.	-4	0.4
CC(C)NC(=O)NC(=O)COC(=O)C1(C)CC1(Cl)Cl (stereo unspecified)
 : 1%	0.0	-13%	0.9%	-10	2.0
CNC(=S)N1CCC(NC(=O)C(Cc2ccc(OC)cc2)NC(C)=O)CC1 (stereo unspecified)
 : 9%	-4.4	5%	-3.6%	-8	0.0
CC(=O)N1CCN(c2ccc(NC(=O)c3cc(Cl)ccc3Cl)cc2)CC1
 : -5%	-0.6	-3%	-1.7%	1	-0.2
Cc1nccn1CCC(=O)NC1CCCc2c1cnn2-c1ccc(C(C)(C)C)cc1 (stereo unspecified)
 : .	.	-64%[inhibitor]	1.9%	-6	-1.1
COC(=O)CCCC1=CC2=C(c3ccccc3)C(=O)C(C)(OC(=O)C3CCCC3)C(=O)C2=CN1Cc1ccc2c(c1)OCO2 (stereo unspecified)
 : 4%	-6.8[11.7 µM]	-7%	2.2%	28	1.5
Cc1cc(C)cc(NC(=O)Cc2noc3ccccc23)c1
 : .	.	.	1.1%	-8	0.8
CCOc1ccccc1C(=O)NCc1ccco1
 : -3%	7.7	-5%	-22%	-5	0.0
Cc1nnc(NC(=O)CN2CCN(Cc3ccccc3Cl)CC2)s1
 : 0%	1.7	0%	1.1%	2	-0.1
O=C(/C=C/c1cccs1)NCc1ccccc1
 : -2%	-5.7	4%[15.4 µM]	.	16	1.3

Later entries
Below each compound – gsp antagonist	Menin MLL FP FL	gsp agonist	ClpP mod	TRPML1 inh	TRPML1 ag
CN([C@@H](C(=O)OC(C)(C)C)c1ccccc1)S(=O)(=O)c1cccc(S(=O)(=O)N(C)[C@@H](C(=O)OC(C)(C)C)c2ccccc2)c1
 : 10%	5.5	?	-2.3%	-19	71*
Cc1cc(O)c2c(c1)CC1C3CCC4CC(=O)CCC4(C)C3CC(=O)C21C (stereo unspecified)
 : 11%	.	13%	.	1	-0.9
CC(=O)c1cccc(NC(=O)CCNS(=O)(=O)c2cccc3nonc23)c1
 : 13%	-2.9	23%[15.4 µM]	.	-15	1.3
Cc1ccc(Cl)cc1-n1ncc2c(NNC(=O)c3ccco3)ncnc21
 : -12%	1.5	-2%[15.4 µM]	.	-6	0.4
Cc1noc(C)c1-c1nnc(-c2ccc(OC(F)(F)F)cc2)o1
 : 9%	0.2	-28%[15.4 µM]	1.3%	12	-0.7
COc1cccc(OCCOc2ccc(/C=C3/SC(=S)NC3=O)cc2)c1
 : -22%	?	-16%	1.5%	-4	1.7
CNc1ccc(S(=O)(=O)NCC(=O)OC(C)C(=O)N(C)Cc2ccccc2)cc1[N+](=O)[O-] (stereo unspecified)
 : -4%	.	?	-0.2%	-7	-1.2

A second format for part of the listing above.
CCOC(=O)C1CCN(CC(O)COCc2ccc3c(c2)OCO3)CC1 (stereo unspecified)
  gsp antagonist: 7% | Menin MLL FP FL: 0.5 | gsp agonist: ? | ClpP mod: 0.9% | TRPML1 inh: -4 | TRPML1 ag: -0.4

O=C(NC(Nc1ccccn1)C(Cl)(Cl)Cl)c1ccccc1 (stereo unspecified)
  gsp antagonist: -2% | Menin MLL FP FL: -0.9 | gsp agonist: -2%[15.4 µM] | ClpP mod: . | TRPML1 inh: -6 | TRPML1 ag: -0.3

An unsorted share of the library; about 2.1% have a hit in one of these screens.
